B2AR ag – human beta-2 adrenergic receptor agonism by FAP. AID 504454. Am2.2-beta2AR cells, FAP receptor internalization, flow cytometry; reference of the scale not given here. response, % (test concentration not listed). P07550. 340,000 compounds, 0.43% hits;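 active = response above a set limit, near 3 SD of response in nonfluorescent compounds, cut at about 42% in these data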;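 note: stock transfer was 100 nL into about 11 µL; a reference agonist was the positive control; negative values mostly stem from fluorescent compounds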
Bfl-1 A1 inh – inhibitors of the anti-apoptotic protein A1, read as caspase activation. MEF A1-2A-BIM cells, Caspase-Glo 3/7 luminescence, 3 h; percent of clofoctol response, vehicle zero. caspase activation, % (test concentration not listed). 330,000 compounds, 0.066% hits. AID 2462;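 active = over half of replicate activation scores above 10%, or exactly half above 10 with the replicate mean above 10; inconclusive = replicate mean below 10 yet half the replicates above 10; inactive = over half of replicates below 10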;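 note: wells of about 30 µL received 50 nL stock; many hits fall short of the cut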
T cruzi inh – blocks replication of Trypanosoma cruzi | 300,000 compounds, 1.4% hits | T. cruzi beta-gal in NIH3T3, luminescence, 90 h | inhibition, % (test concentration not listed);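 active = mean inhibition across valid replicates above about 55%, limit read from the data; inconclusive = mean below that limit but half or more replicates reach it; inactive = mean below it, under half of replicates reach it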;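 note: signal also drops with host cell toxicity which is not excluded here; 0% = plate median of DMSO wells and 100% = zero luminescence signal; higher percent means less beta-gal luminescence so fewer parasites; stock transfer was 50 nL into about 50 µL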
ALR H2O2 inh – inhibitors of human sulfhydryl oxidase ALR; P55789; inhibition, % (no concentration beside the values); 290,000 compounds, 3.8% hits; AID 485317; purified ALR, DTT oxidation, H2O2 HRP-luminol luminescence;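 active = mean and each replicate at 75% or more; inconclusive = only one of the two met; inactive = neither met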;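 note: stock transfer was 7.5 nL into about 7.5 µL; 0% = neutral wells and 100% = wells with inactivated enzyme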
LANA-H2B inh – blocks KSHV LANA binding to histone H2A/H2B. Q9QR71. cell-free LANA-H2A/H2B peptide, fluorescence polarization. inhibition, % (concentration not given with the values). 320,000 compounds, 0.6% hits; in the data active = inhibition mostly above about 10%, no sharp cut-off; inactive = mostly below about 6.7%;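 note: stock transfer was 7.5 nL into about 10 µL; 0% = median of vehicle wells and 100% = median of positive control wells; one replicate is shown; the record names a cut of 25% in any replicate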
Target sequence (Q9QR71 whole entry, looked up): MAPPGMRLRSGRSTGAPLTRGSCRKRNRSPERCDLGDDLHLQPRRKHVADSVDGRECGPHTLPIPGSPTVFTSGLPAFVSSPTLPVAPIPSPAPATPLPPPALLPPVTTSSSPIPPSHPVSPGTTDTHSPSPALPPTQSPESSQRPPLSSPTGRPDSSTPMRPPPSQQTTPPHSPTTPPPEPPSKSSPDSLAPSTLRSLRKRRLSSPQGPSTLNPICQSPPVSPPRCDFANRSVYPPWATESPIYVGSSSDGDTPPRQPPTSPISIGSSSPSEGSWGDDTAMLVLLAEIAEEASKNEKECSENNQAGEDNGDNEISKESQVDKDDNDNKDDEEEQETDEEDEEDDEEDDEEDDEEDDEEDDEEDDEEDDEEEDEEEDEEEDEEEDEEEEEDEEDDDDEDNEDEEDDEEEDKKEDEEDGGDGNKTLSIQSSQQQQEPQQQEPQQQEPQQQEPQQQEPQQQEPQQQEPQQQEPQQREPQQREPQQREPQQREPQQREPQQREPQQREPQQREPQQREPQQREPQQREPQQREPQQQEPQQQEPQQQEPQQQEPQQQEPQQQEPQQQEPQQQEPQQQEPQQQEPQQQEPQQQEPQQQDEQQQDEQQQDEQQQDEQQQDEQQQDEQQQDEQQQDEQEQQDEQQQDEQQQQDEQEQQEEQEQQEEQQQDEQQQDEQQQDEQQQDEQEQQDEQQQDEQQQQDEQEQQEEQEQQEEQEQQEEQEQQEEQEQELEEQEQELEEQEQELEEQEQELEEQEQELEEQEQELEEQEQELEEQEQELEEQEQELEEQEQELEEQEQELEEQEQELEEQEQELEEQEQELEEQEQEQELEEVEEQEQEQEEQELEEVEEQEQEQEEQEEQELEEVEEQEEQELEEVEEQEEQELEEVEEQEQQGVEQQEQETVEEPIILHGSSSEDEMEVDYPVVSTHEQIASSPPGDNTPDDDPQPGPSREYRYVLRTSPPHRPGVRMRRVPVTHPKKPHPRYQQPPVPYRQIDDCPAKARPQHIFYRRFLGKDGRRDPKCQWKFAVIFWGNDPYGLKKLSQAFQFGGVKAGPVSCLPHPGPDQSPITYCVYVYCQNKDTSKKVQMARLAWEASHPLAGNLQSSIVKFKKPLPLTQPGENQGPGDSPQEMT
Ecoli rRNA inh – selective bacterial rRNA inhibition in E. coli; E. coli WT GFP vs humanized-ribosome RFP mutants, fluorescence, 24 h; active compounds read low; DMSO median 0, no signal -100; GFP signal change (wild-type ribosome), % (no concentration beside the values); 350,000 compounds, 1.6% hits; AID 720706;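 active = significant combined selectivity score with lowered wild-type GFP, culture density cut under 30%, mutant RFP and density less affected; inactive = any of these conditions unmet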; note: one replicate is shown; some compounds called inactive have numbers as strong as hits
Calb FLC – affects C. albicans growth with fluconazole; C. albicans CaCi-2 (fluconazole-resistant clinical isolate) + fluconazole, Alamar Blue growth, 48 h; growth inhibition, % (no concentration beside the values); 300,000 compounds, 0.57% hits;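 active = most replicates above 75%; inconclusive = exactly half above 75%; inactive = most below 75%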;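 note: all wells also contain fluconazole at 8 µg/ml as a sub-toxic cotreatment; 0% = median of DMSO wells and 100% = median of geldanamycin control wells; wells of about 8 µL received 7.5 nL stock; the first replicate is given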
Beta apoptosis – beta cell apoptosis inhibition. 300,000 compounds, 0.8% hits. protection from apoptosis, % (no concentration beside the values). INS-1E cytokine-induced death, ATP luminescence, 48 h; percent of positive-control rescue, neutral wells zero;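 active = all replicates at 75% or more, or half of them and the mean; inconclusive = half reach 75% but not the mean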;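 note: 0% = cytokine-treated negative control wells and 100% = positive control rescue; higher means more ATP so stronger rescue from cytokine killing; wells of about 40 µL received 100 nL stock; the first replicate is given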
Ecoli rRNA inh OD600 – recorded beside Ecoli rRNA inh, whose call it bears; OD600 change, %; measured here: OD600 growth;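 optical density of the mix in the first replicate; 0 = DMSO median and -100 = no signal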
Ecoli rRNA inh RFP – further read-out of Ecoli rRNA inh, marked with its call; RFP signal change, %; measured here: RFP humanized mutant strains;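 first replicate; 0 = DMSO median and -100 = no signal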
Starred values were filed as active, the others as inactive; u = inconclusive; x = no result given; & = joins results of further samples. Not all compounds are listed (hit frequency here may not be typical).

SMILES	B2AR ag	Bfl-1 A1 inh	T cruzi inh	ALR H2O2 inh	LANA-H2B inh	Ecoli rRNA inh	Ecoli rRNA inh OD600	Ecoli rRNA inh RFP	Calb FLC	Beta apoptosis
CC(=O)Nc1ccc2nc(-c3cccs3)[nH]c2c1	-11	-2.6	-8	x	-0.7	x	x	x	1	4
CCN(CC)C(=O)c1ccc(COc2ccccc2Cl)o1	5	0.5	-4	-13	-1.4	-20*	-7.1*	-4.9*	5	-4
Cc1ccc(OCC(=O)Nc2ccc(NC(=O)c3ccccc3)c(C)c2)cc1	-10	1.1	x	-15	-0.1	5	16	1.0	27	3
CCOc1ccc(NS(=O)(=O)c2cc(OC)ccc2OC)cc1	-11	-0.2	-3	-17	0.0	0	-1	0.8	-5	0
CC(C)C(OC(=O)c1cc2occc2n1C)C(=O)NCc1ccc2c(c1)OCO2 (configuration not stated)	3	-0.3	25	6	-2.3	11	-3	2.0	-60	-3
Cc1ccc2[nH]cc(CCNC(=O)c3ccc([N+](=O)[O-])cc3)c2c1	5	-0.4	-16	10	-1.9	-3	0	-7.3	6	-2
COc1cccc(-c2cc3nc(-c4ccccc4)cc(N4CCCC(O)C4)n3n2)c1 (configuration not stated)	0	-1.4	37	-2	-1.1	x	x	x	1	13
O=C(CSc1nnc(CNC(=O)c2ccco2)o1)Nc1ccccc1F	-2	0.7	5	-17	1.1	2	1	10	14	-6
CCC1(C)Cc2ccccc2-c2c1c(=O)n(-c1ccc(C)cc1)c1nnnn21 (configuration not stated)	4	0.6	21	-3	-2.6	x	x	x	1	2
O=C(/C=C/c1ccc(S(=O)(=O)N2CCOCC2)cc1)NCc1ccccc1Cl	3	0.7	13	-3	1.9	x	x	x	-2	4
COc1ccc2cc(CN(CC3CCCO3)S(=O)(=O)c3ccc(C(C)=O)cc3)c(=O)[nH]c2c1 (configuration not stated)	-22	0.6	8	-4	3.5	x	x	x	2	-2
O=C(CSc1nc2c(c(=O)n1-c1ccc(Br)cc1)SCC2)NCC1CCCO1 (configuration not stated)	-1	0.7	6	0	-0.7	x	x	x	27	2
Cc1ccc(NC(=O)C2CCN(S(=O)(=O)c3cccc4cccnc34)CC2)nc1	-19	0.7	-10	95*	-1.8	-9	-3	-4.3	-6	-3
CCC(=O)NCCc1nc2cc(NC(=O)c3ccc(F)cc3)ccc2n1C	0	-0.8	-13	0	7.6	3	12	-2.9	-3	-2
CCOc1cc(/C=C2\C(=O)N(c3nc(-c4ccc(Br)cc4)cs3)N=C2c2ccccc2)ccc1O	-87	-1.0	11	-1	0.2	x	x	x	u	x
COc1cccc(C(N)=O)c1OC(=O)Cc1ccccc1F	-1	-1.8	-18	13	0.5	6	0	3.0	27	-6
CCOC(=O)CNC(=O)CSc1nnc(NC(=O)c2ccccc2Cl)s1	0	-2.7	-8	-5	-0.2	0	4	-3.3	-17	2
COc1ccccc1CNc1nc2nc(C)c(C)c(=O)n2[nH]1	1	1.3	0	-1	3.5	x	x	x	-6	-2
O=C(CNS(=O)(=O)c1cccs1)N1CCCC1	1	1.0	7	-6	0.3	x	x	x	-1	0
Cc1cc(C)c2cc(C#N)c(N3CCCN(C(=S)NCCCN(C)C)CC3)nc2c1	27	0.1	34	32	-4.3	6	1	10	x	3
Cc1ccc(CNc2oc(-c3ccco3)nc2S(=O)(=O)c2ccccc2)cc1	-4	1.3	-7	-4	3.0	x	x	x	-6	-5
CCCCc1c(C)c2cc(C)ccc2[nH]c1=O	-2	0.0	31	-9	1.2	x	x	x	2	-8
CCCCNC(=S)N(CCN(C)C)Cc1cc2cc3c(cc2[nH]c1=O)OCCO3	2	0.6	0	-23	-5.0	-3	3	0.2	-8	-9
CN1/C(=C\C=Nc2cc(S(=O)(=O)N3CCOCC3)ccc2N2CCOCC2)C(C)(C)c2ccccc21	-3	0.3	4	33	8.0	-15	-13	67	1	0
CN(CC(=O)O)c1ccc(C(F)(F)F)cc1[N+](=O)[O-]	0	x	3	x	x	4	2	-1.8	2	x
Cc1ccn(CC(=O)NC2CCCN(Cc3ccc(CC(C)C)cc3)C2)n1 (configuration not stated)	-8	-0.3	50	1	-2.4	9	2	-0.6	-19	1
Cc1ccc(C(=O)CCS(=O)(=O)c2ccc(Br)cc2)cc1	14	-0.8	15	7	5.8	20	21	4.6	-1	-17
OC(COc1ccc(Cl)cc1)CN1CCCCC1 (configuration not stated)	8	-0.3	3	1	-0.5	9	6	-0.8	1	1
COc1ccc(C(=O)Nc2ccc(S(=O)(=O)N3CCCC3)cc2)cc1	13	0.2	-2	-3	-2.0	-32*	-25*	-4.5*	-3	-4
Cc1ccc(-c2ccc(CCC(=O)O)n2C(C)C)cc1	12	0.3	-16	74	5.8	-1	0	0.3	20	-3
COc1ccc(CNC(=O)C[C@H]2C(=O)N(c3ccccc3)C[C@@H]2Cc2ccccc2)cc1	1	-3.2	12	-14	-0.6	-20	-41	7.4	2	4
COc1cc(C(=O)OC(C)CN2CCOCC2)cc(OC)c1OC (configuration not stated)	-2&-7	0.1&-0.7	-6&-10	-3&-2	1.3&-0.8	4	3	-3.5	2&2	-4&1
Cc1cnc(C(=O)OCc2nc3ccccc3o2)cn1	-3	1.4	x	31	-3.2	3	0	-2.3	x	-5
c1ccc(-c2ccc(-c3nc(-c4ccccn4)no3)cc2)cc1	-10	0.3	8	-12	-2.9	10	15	1.7	25	70
O=C(CN1C(=O)C(=O)N(Cc2ccco2)C1=O)Nc1ccc(F)c(F)c1F	-6	-1.0	x	5	-3.4	6	21	-0.1	x	-4
Cc1ccc(NC(=O)C2CCCNC2=O)nc1 (configuration not stated)	-3	0.4	0	x	-5.2	x	x	x	-6	3
COc1ccc(OCc2nc3c4c(ncn3n2)-c2ccccc2CC42CCCC2)cc1	-5	0.5	14	2	-0.5	x	x	x	-11	5
C=CCn1c(C)cc(C(=O)COC(=O)/C=C/c2ccc(OC)cc2)c1C	5	-3.7	2	x	-2.2	-7	-5	0.6	-24	-9
O=C(Nc1ccc(Cl)cc1)Nc1ccccc1Sc1ncc([N+](=O)[O-])s1	22	-12	18	x	-0.5	-46	-41	-8.4	-5	23
O=C(CSc1ccc(-c2ccc(F)cc2)nn1)Nc1ccc2c(c1)OCCO2	-2	-0.1	-11	-9	2.5	x	x	x	15	1
CCn1ccc2cc(OC)ccc2c1=S	2	-0.1	-6	-54	-2.2	x	x	x	-40	-13
COc1cc2c(=O)n(CCCC(=O)NCC3CCCO3)c(=O)n(CC(=O)c3ccc(F)cc3)c2cc1OC (configuration not stated)	6	0.4	-9	x	-0.6	12	5	0.9	0	-1
COC(=O)Nc1ccc2c(c1)Nc1ccccc1CC2	3	0.1	2	98*	0.7	-18	-35	9.9	-6	8
CCN(CC)c1ccc(C(=O)N/N=C/c2ccc(OC)cc2OC)cc1	1	0.0	7	1	-4.3	0	4	1.9	-10	0
O=C(c1ccc(F)cc1)C1CCN(C(=O)c2ccccc2F)CC1	0	1.0	-6	x	-5.1	-16	-17	-11	-1	-3
Cn1nc2sc3ccccc3n2c(=O)c1=O	-5	0.3	-8	-3	-1.8	14	2	1.1	-1	x
CC(C)COc1ccc(C(=O)Nc2ncn[nH]2)cc1	6	-4.6	-13	-5	1.6	-1	6	0.1	-1	4
Cc1cccc(C)c1NC(=O)Cn1nc(-c2ccc(Cl)s2)ccc1=O	2	-0.5	-7	-2	-3.5	-5	-11	1.2	4	-4
CCCn1nnc(NC(=O)c2ccc(Br)cc2)n1	7	-1.8	-10	-2	1.2	-1	-2	0.0	1	0
COc1ccc2nc3ccccc3nc2c1NC(=O)c1ccc(Br)cc1	5	-0.2	-4	-6	2.1	x	x	x	-16	2
Cc1cc(SCC(=O)NC(=O)c2cccn2C)nc2ccccc12	12	1.1	-2	-2	0.9	-7	-8	0.1	0	-7
O=C(NC1CCCCC1)c1cccc2c1C(=O)c1ccc(-c3ccc(OC(F)(F)F)cc3)cc1S2(=O)=O	-3	u	x	-2	-1.1	11	10	-2.6	x	40
CC(C)(C)N(Cc1ccccc1)C(=O)CN1C(=O)c2ccccc2C1=O	-16	-0.8	2	-3	-4.9	4	20	1.4	-13	2
CC(=O)N1CCN(c2ccccc2NC(=O)COc2cc(C)ccc2C(C)C)CC1	20	0.1	x	6	0.3	x	x	x	-5	11
COCc1cc(C)n(CC(=O)Nc2ccc(N3CCOCC3)cc2)c(=O)c1C#N	4	-0.1	-7	x	x	2	3	-2.7	15	-2
COc1ccc(N2CC(C(=O)OCC(=O)c3ccccc3)CC2=O)cc1 (configuration not stated)	5	0.5	-6	-20	0.8	x	x	x	-7	0
Cc1nn2c(=O)c3c4c(sc3nc2n1-c1ccccc1)COC(C)(C)C4	2	0.2	29	0	2.8	0	3	-1.6	7	-2
COC(=O)[C@@]1(Cc2ccccc2)C=C[C@@H](C)N1C(C)=O	-2	-0.1	-9	1	2.0	5	8	-2.0	-3	1
O=C(NCc1cccnc1)NC(C(F)(F)F)C(F)(F)F	2	0.0	0	-14	-2.9	x	x	x	0	-1
Cc1ccc(NC(=O)C(c2ccccc2)N2CCN(C(=O)c3ccco3)CC2)cc1Cl (configuration not stated)	2	0.6	x	-4	0.0	x	x	x	x	3
More structures follow:
SMILES	B2AR ag	Bfl-1 A1 inh	T cruzi inh	ALR H2O2 inh	LANA-H2B inh	Ecoli rRNA inh	Ecoli rRNA inh OD600	Ecoli rRNA inh RFP	Calb FLC	Beta apoptosis
CCOC(=O)c1nc2ccccc2s1	8	-0.3	-18	-1	2.7	x	x	x	-3	-3
Cc1cccc(NC(=O)CN(c2ccc(F)cc2)S(C)(=O)=O)c1	5	0.0	-2	-11	-3.9	9	3	2.7	u	-9
O=C(N/N=C/c1cc([N+](=O)[O-])ccc1O)c1ccc(COc2ccc3c(c2)CCC3)o1	2	2.7	u	-5	-1.6	x	x	x	93*	105*
Cc1cccc(/C(N)=N/OC(=O)COc2ccccc2Cl)c1	-10	-0.4	x	x	5.1	2	-1	-3.9	x	-4
CCOc1ccc(C2CC(c3ccccc3)Nc3nc(N)nn32)cc1 (configuration not stated)	-11	-0.2	25	-8	1.1	x	x	x	-4	-4
CC(C)(C)NC(=O)/C(=C/c1cccnc1)NC(=O)c1ccco1	-6	-0.1	6	2	-1.1	7	-12	-1.6	5	-10
Cc1ccc(/C=N/NC(=O)c2ccoc2C)s1	-3	-8.1	-6	3	0.4	-4	-8	3.8	2	8
CCCCNCc1cc(Br)c(OCc2cccs2)c(OC)c1	5	0.1	44	-5	4.8	x	x	x	0	5
N#Cc1cnn2c3c(cnc12)C(=O)N1CCc2ccccc2C1C3 (configuration not stated)	-25	-0.3	3	-8	-3.0	4	5	0.2	-4	x
CCOC(=O)c1sc2ncn(C(CC)C(=O)OC)c(=O)c2c1C (configuration not stated)	8	-1.7	6	-1	-1.9	x	x	x	-4	-3
